ALR inh = inhibitors of human sulfhydryl oxidase ALR; P55789; purified ALR, DTT oxidation, H2O2 HRP-luminol luminescence; inhibition, % (concentration not given with the values); hit rate 3.8% among 290,000;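 active means mean and each replicate at 75% or more; inconclusive means only one of the two met; inactive means neither met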;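 further: stock transfer was 7.5 nL into about 7.5 µL; 0% = neutral wells and 100% = wells with inactivated enzyme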
Target sequence (P55789 whole entry, looked up): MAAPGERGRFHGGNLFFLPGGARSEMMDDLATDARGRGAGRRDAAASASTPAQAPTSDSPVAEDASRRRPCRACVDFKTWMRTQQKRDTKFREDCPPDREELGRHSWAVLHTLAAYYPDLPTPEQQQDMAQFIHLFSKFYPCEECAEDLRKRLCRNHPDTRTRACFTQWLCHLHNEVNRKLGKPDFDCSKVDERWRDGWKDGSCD
Beta2AR agonist = activates human beta-2 adrenergic receptor causing internalization; P07550; Am2.2-beta2AR cells, FAP receptor internalization, flow cytometry; reference of the scale not given here; response, % (concentration not given with the values); hit rate 0.43% among 340,000; AID 504454;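 active means response above a set limit, near 3 SD of response in nonfluorescent compounds, cut at about 42% in these data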;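 further: stock transfer was 100 nL into about 11 µL; a reference agonist was the positive control; negative values mostly stem from fluorescent compounds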
Target sequence (P07550 whole entry, looked up): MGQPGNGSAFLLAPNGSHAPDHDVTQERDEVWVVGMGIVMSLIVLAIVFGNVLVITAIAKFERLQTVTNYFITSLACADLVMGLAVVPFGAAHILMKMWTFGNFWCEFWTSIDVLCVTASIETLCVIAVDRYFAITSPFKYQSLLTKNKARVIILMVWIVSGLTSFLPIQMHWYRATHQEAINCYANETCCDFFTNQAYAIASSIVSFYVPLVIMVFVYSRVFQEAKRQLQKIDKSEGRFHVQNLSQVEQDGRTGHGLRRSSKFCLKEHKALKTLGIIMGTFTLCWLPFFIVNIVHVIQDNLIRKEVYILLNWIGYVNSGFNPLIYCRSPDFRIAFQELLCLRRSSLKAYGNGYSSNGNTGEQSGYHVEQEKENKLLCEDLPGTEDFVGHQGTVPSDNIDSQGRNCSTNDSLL
Beta cell apopt = blocks beta cell apoptosis; INS-1E cytokine-induced death, ATP luminescence, 48 h; percent of positive-control rescue, neutral wells zero; protection from apoptosis, % (concentration not given with the values); hit rate 0.8% among 300,000; AID 435005;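 active means all replicates at 75% or more, or half of them and the mean; inconclusive means half reach 75% but not the mean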;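 further: 0% = cytokine-treated negative control wells and 100% = positive control rescue; higher means more ATP so stronger rescue from cytokine killing; wells of about 40 µL received 100 nL stock; the first replicate is given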
T cruzi inh = T. cruzi replication inhibition | hit rate 1.4% among 300,000 | T. cruzi beta-gal in NIH3T3, luminescence, 90 h | inhibition, % (test concentration not listed) | AID 1885;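 active means mean inhibition across valid replicates above about 55%, limit read from the data; inconclusive means mean below that limit but half or more replicates reach it; inactive means mean below it, under half of replicates reach it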;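 further: signal also drops with host cell toxicity which is not excluded here; 0% = plate median of DMSO wells and 100% = zero luminescence signal; higher percent means less beta-gal luminescence so fewer parasites; stock transfer was 50 nL into about 50 µL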
Bfl-1 A1 inh = inhibitors of the anti-apoptotic protein A1, read as caspase activation; MEF A1-2A-BIM cells, Caspase-Glo 3/7 luminescence, 3 h; percent of clofoctol response, vehicle zero; caspase activation, % (test concentration not listed); hit rate 0.066% among 330,000; AID 2462;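 active means over half of replicate activation scores above 10%, or exactly half above 10 with the replicate mean above 10; inconclusive means replicate mean below 10 yet half the replicates above 10; inactive means over half of replicates below 10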;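 further: wells of about 30 µL received 50 nL stock; many hits fall short of the cut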
Ecoli rRNA inh = inhibits bacterial ribosomal RNA function over humanized ribosomes | GFP signal change (wild-type ribosome), % (no concentration beside the values) | AID 720706 | hit rate 1.6% among 350,000 | E. coli WT GFP vs humanized-ribosome RFP mutants, fluorescence, 24 h; stronger effect = lower value; DMSO median 0, no signal -100;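 active means significant combined selectivity score with lowered wild-type GFP, culture density cut under 30%, mutant RFP and density less affected; inactive means any of these conditions unmet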; further: one replicate is shown; some compounds called inactive have numbers as strong as hits
LANA-H2A inh = blocks KSHV LANA binding to histone H2A/H2B | Q9QR71 | cell-free LANA-H2A/H2B peptide, fluorescence polarization | inhibition, % (no concentration beside the values) | hit rate 0.6% among 320,000 | AID 2629; in the data active means inhibition mostly above about 10%, no sharp cut-off; inactive means mostly below about 6.7%;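 further: stock transfer was 7.5 nL into about 10 µL; 0% = median of vehicle wells and 100% = median of positive control wells; one replicate is shown; the record names a cut of 25% in any replicate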
Calb FLC = affects C. albicans growth with fluconazole; C. albicans CaCi-2 (fluconazole-resistant clinical isolate) + fluconazole, Alamar Blue growth, 48 h; growth inhibition, % (test concentration not listed); hit rate 0.57% among 300,000; AID 1979;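 active means most replicates above 75%; inconclusive means exactly half above 75%; inactive means most below 75%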;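 further: all wells also contain fluconazole at 8 µg/ml as a sub-toxic cotreatment; 0% = median of DMSO wells and 100% = median of geldanamycin control wells; wells of about 8 µL received 7.5 nL stock; the first replicate is given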
Ecoli rRNA inh OD600 = also measured in Ecoli rRNA inh; calls as there; OD600 change, %; measured here: OD600 growth;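 optical density of the mix in the first replicate; 0 = DMSO median and -100 = no signal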
Ecoli rRNA inh RFP = also measured in Ecoli rRNA inh; calls as there; RFP signal change, %; measured here: RFP humanized mutant strains;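 first replicate; 0 = DMSO median and -100 = no signal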
Numbers without * were called inactive; ? = inconclusive; / = no result given; + = active, no number; & = joins results of further samples.

SMILES	ALR inh	Beta2AR agonist	Beta cell apopt	T cruzi inh	Bfl-1 A1 inh	Ecoli rRNA inh	Ecoli rRNA inh OD600	Ecoli rRNA inh RFP	LANA-H2A inh	Calb FLC
CC(=O)Nc1ccc(S(=O)(=O)NC2=C(N3CCN(Cc4ccccc4)CC3)C(=O)c3ccccc3C2=O)cc1	-6.9	7.6&3.3	20.0	1.0	0.3	-26.2&-27.9	-26.8&-37.0	-9.1&-23.6	+	-3.0
O=C(Cc1cccs1)NCCc1ccc(Cl)cc1	-13.8	4.8	-3.9	-5.9	0.4	-0.9	-17.3	0.0	11.7	6.6
CC(=O)NCC(=O)OCC(=O)N1c2ccccc2Sc2ccccc21	-7.3	4.6	1.6	4.4	0.1	-7.0	-2.0	-1.8	-0.6	-9.7
CCN(C(=O)COC(=O)c1cc(-c2ccccc2)nn1-c1ccccc1)C1CCS(=O)(=O)C1 (configuration not stated)	-2.4	21.5	-2.0	-13.5	1.8	-30.5*	-19.6*	-9.8*	2.6	-21.8
CCOCC(O)CNc1ccccc1 (configuration not stated)	-21.3	-2.2	-2.8	-11.5	1.0	/	/	/	7.0	-1.0
COc1ccc(NC(=O)c2cc3c(s2)CCC3)cc1S(=O)(=O)N1CCOCC1	98.6*	6.3	-2.5	16.7	-0.4	/	/	/	-1.5	33.3
C=CC[C@@H](CC(=O)N[C@H](CO)Cc1ccccc1)C(=O)N[C@H](COC(=O)[C@@H](CC=C)CC(=O)OC(C)(C)C)Cc1c[nH]c2ccccc12	5.1	40.3	20.7	/	0.3	6.0	1.7	17.9	-1.9	/
O=C(NC1CCCC1)C(c1ccncc1)N(Cc1ccco1)C(=O)c1ccc(-c2ccccc2)[nH]1 (configuration not stated)	4.6	-0.5	1.2	56.1*	-1.1	-14.0	-6.5	1.4	-7.7	9.4
C[C@@]12CCC=C[C@H]1[C@H](c1ccc3ccccc3c1/C=C/c1ccccc1)N(Cc1ccccc1)C2=O	-5.3	-8.3	12.8	-6.4	-0.8	2.3	-1.2	-0.2	3.0	-1.2
CCNC(=O)COc1ccc(C=O)cc1OC	-3.7	-5.0	-4.6	-4.6	0.4	/	/	/	4.3	2.2
CC(=O)NC(CC(=O)Nc1nc(C)cs1)c1ccccc1 (configuration not stated)	-8.1	-4.5	-2.2	-5.7	-0.3	12.2	7.3	-0.3	-2.7	1.0
COc1ccc(NC(=O)CCC(=O)Nc2nnc(C3CCCCC3)s2)cc1	-12.9	2.4	-9.9	-2.2	0.2	-0.2	0.3	0.0	5.2	0.3
CC(C)[C@H](NC(=O)c1ccco1)C(=O)OCC(=O)N1CCc2ccccc21	-3.0	16.6	-1.3	-1.7	0.6	/	/	/	-5.1	-1.4
Nc1nc(CSCCO)nc(Nc2ccccc2)n1	-5.0	-2.7	-8.0	-2.6	-0.7	/	/	/	-0.7	-3.6
O=C(CCc1nc(-c2ccc(Cl)cc2)no1)OCc1ccc(Br)cc1	6.6	-3.8	-1.1	0.1	0.6	/	/	/	-4.7	-3.4
COc1ccccc1NC(=O)/C(C#N)=C/C=C/c1ccco1	-40.1	-2.4	6.8	-6.9	-0.2	/	/	/	-1.8	-1.1
CNC(=S)N/N=C/c1ccc(-c2cc([N+](=O)[O-])ccc2Cl)o1	-1.3	4.2	-3.2	1.7	0.1	13.6	12.6	1.6	-1.5	-4.0
Cc1ccc(-c2nc3cccnc3s2)cc1NS(=O)(=O)c1ccc2c(c1)OCCO2	-4.9	-28.4	7.9	22.4	0.2	-8.7	-18.7	-4.4	-3.6	-10.7
CSc1ccccc1OCc1cc(C(=O)N2CCc3[nH]cnc3C2c2ccccn2)no1 (configuration not stated)	2.2	-1.4	-0.1	4.5	0.8	3.9	0.4	3.4	-1.0	3.4
COc1cc(/C=C/C(=O)O)cc(S(=O)(=O)Nc2ccccc2Oc2ccccc2)c1OC	-0.6	1.8	-7.0	-30.1	-0.2	-9.2	-3.6	7.4	-0.6	1.9
COc1ccc(N2CCN(C(=O)COC(=O)CCc3ccccc3)CC2)cc1	1.3	-7.2	-3.0	/	-0.1	/	/	/	/	/
COc1ccc(C)c2sc(NC(=O)C3=COCCO3)nc12	14.0	-5.3	-3.4	-26.1	-1.2	-10.7	-16.7	-6.0	1.3	10.2
O=C(OCC(=O)c1ccc[nH]1)c1ccc(Cl)nc1	3.7	4.7	-8.8	-1.4	0.1	-1.4	5.3	0.1	1.6	/
COCCNC(=O)c1ccc(N2CC3CC(C2)c2cccc(=O)n2C3)c(NC(=O)c2c(F)cccc2F)c1 (configuration not stated)	-4.3	1.2	1.7	-2.4	0.4	-3.1	6.6	-1.9	-3.0	7.1
CO/N=C\C(=N\Nc1ccc(OC)cc1)C(=O)c1ccccc1	-5.5	13.4	11.7	24.0	-0.1	/	/	/	-0.9	-4.6
COc1ccccc1C(=O)N/C(=C\c1ccc(Br)cc1)C(=O)N1CCCC1	-16.3	-15.4	-3.4	-14.5	0.2	-40.2*	-11.5*	-3.1*	-2.6	?
COc1ccc(C(=O)Nc2cccc(-c3cc4ccccc4oc3=O)c2)cc1[N+](=O)[O-]	-24.8	-3.6	-4.3	/	-0.2	/	/	/	-0.1	/
CCOc1ccc(CSC(=N)N)cc1Cl	99.5*	9.4	-9.7	0.5	-0.8	6.7	-5.3	1.5	-3.1	3.7
O=C(O)CN1C(c2ccccc2O)Nc2ccc(Br)cc2C1c1ccccc1 (configuration not stated)	/	-0.2	/	-13.6	/	-12.9	-9.8	-4.6	/	1.6
CC1(c2nnc(-c3ccccc3)o2)CC(c2ccncc2)=NO1 (configuration not stated)	-4.8	-13.9	0.8	-9.3	0.0	19.5	13.3	0.9	-0.5	-0.1

Single records, as listed above. Values in the order: ALR inh, Beta2AR agonist, Beta cell apopt, T cruzi inh, Bfl-1 A1 inh, Ecoli rRNA inh, Ecoli rRNA inh OD600, Ecoli rRNA inh RFP, LANA-H2A inh, Calb FLC
CO/N=C\C(=N\Nc1ccc(OC)cc1)C(=O)c1ccccc1 is listed as -5.5, 13.4, 11.7, 24.0, -0.1, /, /, /, -0.9, -4.6
COc1cc(/C=C/C(=O)O)cc(S(=O)(=O)Nc2ccccc2Oc2ccccc2)c1OC is listed as -0.6, 1.8, -7.0, -30.1, -0.2, -9.2, -3.6, 7.4, -0.6, 1.9
COc1ccc(C(=O)Nc2cccc(-c3cc4ccccc4oc3=O)c2)cc1[N+](=O)[O-] is listed as -24.8, -3.6, -4.3, /, -0.2, /, /, /, -0.1, /
COc1ccc(N2CCN(C(=O)COC(=O)CCc3ccccc3)CC2)cc1 is listed as 1.3, -7.2, -3.0, /, -0.1, /, /, /, /, /

(more compounds)
SMILES	ALR inh	Beta2AR agonist	Beta cell apopt	T cruzi inh	Bfl-1 A1 inh	Ecoli rRNA inh	Ecoli rRNA inh OD600	Ecoli rRNA inh RFP	LANA-H2A inh	Calb FLC
COc1ccc(/C=C2\CCC(C3CCCC3)C2=O)c(OC)c1OC (configuration not stated)	-15.0	2.9	-4.2	8.6	-0.2	3.5	-0.2	-1.9	1.0	-5.9
CC1CCCCC1NC1=NCCS1 (configuration not stated)	30.8	10.9	-8.0	7.1	-0.6	/	/	/	4.3	-6.5
COc1ccc(O)c(C(=O)c2cnn(-c3ccccc3)c2)c1	-2.5	-1.4	-4.7	8.8	0.4	-26.7*	-18.9*	1.0*	1.2	-15.1
N/C(=N\c1nc2ccccc2o1)NC(=O)c1ccccc1NC(=O)c1ccccc1	-2.2	14.6	14.7	/	-3.6	/	/	/	5.4	/
CCOCCCNC(=O)C1CCCN(S(=O)(=O)CC)C1 (configuration not stated)	-1.5	4.5	3.1	-4.2	-0.6	/	/	/	-8.3	-4.2
CSc1nnc(-c2sccc2OCc2ccccc2)n1C	-0.4	-8.2	-11.9	-3.2	-0.3	/	/	/	3.9	-4.6
Cc1cc(C)c(S(=O)(=O)c2ccccc2C)c(OCC(C)(C)C)n1	-3.9	9.4	-4.0	19.3	0.2	/	/	/	-4.6	0.0
CN(C)c1ccc(-c2nc3n(n2)C(c2cccnc2)C2=C(CC(C)(C)CC2=O)N3)cc1 (configuration not stated)	/	-2.7	5.7	0.2	0.5	/	/	/	-11.0	1.6
O=C(NCC1CCCO1)c1cc(S(=O)(=O)N2CCCCC2)ccc1Cl (configuration not stated)	-4.4	2.3	-0.6	/	-0.7	5.4	2.9	-3.6	-1.0	/
CCn1c(CNC(=O)c2cc(OC)c(OC)c(OC)c2)cc2ccccc21	/	-0.4	15.3	-18.5	-0.3	-6.3	3.8	-2.0	-1.0	51.5
CC(=O)c1ccc(NC(=O)CN2CCCC2)cc1	-6.5	-5.2	-4.3	2.9	1.6	9.0	11.0	-0.2	4.4	1.5
O=C(NC(=O)N1CCN(c2ccccc2)CC1)c1ccc(Cl)cc1	23.2	-0.9	0.4	-16.8	0.1	/	/	/	-0.6	?
Cc1c(C)c2c(C)[nH]nc2oc1=O	-5.0	-1.5	0.4	-2.4	1.0	/	/	/	-1.6	-3.5
C/C=C\C=C\C(=O)N1CC2(CC(c3cccc(NC(=O)/C(C)=C\C)c3)=NO2)C[C@H]1C(N)=O (some centres not stated)	12.2	1.2	-2.8	2.1	-0.7	7.6	3.6	-2.8	0.2	2.0
Cc1nonc1C(=O)N/N=C/c1ccccc1	7.4	1.6	4.0	11.2	-5.7	23.9	11.3	0.6	-4.0	-11.1
O=C(CC1Oc2ccccc2NC1=O)NC1CCCC1 (configuration not stated)	-24.8	-3.6	/	-11.4	0.8	10.8	16.1	1.7	2.4	-3.2
C=CCNC(=S)N/N=C/c1ccc(OCc2ccccc2)cc1	-10.0	-3.4	2.0	-26.5	-0.2	-8.4	-0.8	9.7	-1.8	3.8
O=C(CSc1ccccn1)N1CCN(c2ccc(Cl)cc2)CC1	-1.4	0.4	-2.4	18.5	1.2	/	/	/	-2.5	15.9
CSc1nc(-c2ccccc2)nn1C(=O)c1ccccc1	13.8	-13.3	-2.5	0.3	1.5	/	/	/	-6.6	9.7
Cc1onc(-c2c(F)cccc2Cl)c1C(=O)OCC(=O)NCc1ccco1	4.9	0.9	-5.6	-3.0	-1.1	/	/	/	5.0	-9.8
Cc1cccc(-c2nc3ccccc3c(=O)n2NC(=O)c2ccc([N+](=O)[O-])c(C)c2)c1	-2.2	-7.1	0.0	-6.1	2.2	12.5	13.5	0.9	3.1	-29.1
Nc1nnnn1/N=C/c1ccc(F)cc1	/	3.1	/	-11.5	-0.5	8.2	10.5	0.6	1.6	-3.4
Cc1ccc(S(=O)(=O)NCC(=O)OCC(=O)Nc2cccc(S(=O)(=O)NC3=NCCCCC3)c2)cc1	-16.7	1.4	2.5	-20.1	-0.3	-5.6	-6.0	1.8	-3.9	5.5
COC(=O)c1ccc(NC(=O)CNC(=O)c2sc3ccccc3c2Cl)cc1	/	-3.8	6.1	/	-1.6	1.5	4.3	1.4	-14.6	/
COC(=O)c1c(NC(=O)CC2NCCNC2=O)sc2c1CCCC2 (configuration not stated)	9.6	1.8	-2.0	-6.5	0.6	/	/	/	0.6	-1.3

An excerpt; the hit share may differ from the screen's.
